# Compound activity deposited in PubChem by Broad Institute.
# Vaccinia stage: Vaccinia orthopox stage-specific inhibition; 89,000 tested, 0.01% active; Vaccinia-infected cells, mCherry/Venus stage reporter fluorescence; stronger effect = lower value; some inactives read as strong as hits; activity change (mCherry), % (concentration not given with the values);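 active means mCherry past -33% and 40 or more points under the early reporter, replicates agreeing; inconclusive means past -33% without that gap or agreement; tested in A549 cells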;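 further: scaled between vehicle wells and reference inhibitor wells; 23 nL library stock went into each well; one replicate is shown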
# Vaccinia stage Venus: also measured in Vaccinia stage; calls as there; activity change (Venus), %; measured here: Venus reporter, other viral stage;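 negative = less Venus signal; first of two replicates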
# * marks the source's active call; other numbers are inactive results; ? = inconclusive; nt = no result given; & = joins results of further samples.
# Values in the order – Vaccinia stage, Vaccinia stage Venus
- C[C@H](CO)N1C[C@H](C)[C@H](CN(C)C(=O)Nc2cccc3ccccc23)Oc2ccc(NC(=O)Cn3cnnn3)cc2C1=O
    -29, -18
- CCCN1[C@@H]2c3ccc(-c4ccccc4)c(=O)n3C[C@H]1[C@H](CO)[C@H]2C(=O)NCC
    -5, -5
- COc1ccccc1-c1cn(CC[C@@H]2CC[C@H](NC(=O)C3CCCC3)[C@H](CO)O2)nn1
    -11, -7
- COc1ccc(S(=O)(=O)N(C)C[C@@H]2OCCCC[C@H](C)Oc3ccc(NS(=O)(=O)c4ccc(C)cc4)cc3C(=O)N([C@@H](C)CO)C[C@H]2C)cc1
    -6, -2
- C[C@H]1CN([C@@H](C)CO)C(=O)c2cc(NS(=O)(=O)c3ccccc3)ccc2O[C@H]1CN(C)Cc1ccc(C(=O)O)cc1
    5, 2
- CCCNC(=O)C[C@H]1CC[C@H]2[C@@H](COC[C@@H](O)CN2C(=O)Nc2ccccc2OC)O1
    4, 4
- COc1ccc(CN(C)C[C@H]2Oc3c(NC(=O)c4ccncc4)cccc3C(=O)N([C@@H](C)CO)C[C@@H]2C)cc1
    11, 11
- CC(C)NC(=O)Nc1ccc2c(c1)CC(=O)N([C@@H](C)CO)C[C@H](C)[C@@H](CN(C)CC1CCCCC1)O2
    -18, -8
- C[C@@H]1CN([C@@H](C)CO)C(=O)c2cc(-c3cncnc3)cnc2O[C@H]1CN(C)C(=O)c1ccccc1F
    6, -3
- COc1ccc(-c2cnc3c(c2)C(=O)N([C@H](C)CO)C[C@@H](C)[C@@H](CN(C)C(=O)Cc2ccccn2)O3)cc1
    19, 13
- O=C(c1ccccc1F)N1CC[C@H]2[C@H](CO)Nc3ccc(-c4ccc(F)cc4)cc3[C@H]21
    -19, -12
- C[C@@H]1CN([C@H](C)CO)S(=O)(=O)c2ccc(Br)cc2O[C@@H]1CN(C)C
    54, 20
- CC(C)NC(=O)Nc1cccc2c1O[C@@H](CN(C)Cc1ccc(Cl)c(Cl)c1)[C@H](C)CN([C@@H](C)CO)C2=O
    ?, nt
- CCCN1C[C@@H](C)[C@@H](OC)CN(C)C(=O)c2ccc(NC(=O)Nc3cccc(OC)c3)cc2OC[C@@H]1C
    -3, 4
- Cc1noc(C)c1NC(=O)N[C@@H]1C=C[C@@H](CC(=O)NCCCN(C)C)O[C@H]1CO
    13, 7
- C[C@H]1CN([C@@H](C)CO)C(=O)c2cc(-c3ccccc3)cnc2O[C@H]1CN(C)Cc1ccccc1
    -6, 2
- C[C@@H]1CN([C@@H](C)CO)C(=O)c2cccc(NC(=O)C3CCOCC3)c2O[C@H]1CN(C)Cc1ccc(Oc2ccccc2)cc1
    ?, nt
- C[C@H](NC(=O)N(C)C[C@@H]1OCc2ccccc2-c2c(n(C)c3ccccc23)C(=O)N([C@@H](C)CO)C[C@@H]1C)c1ccccc1
    ?, nt
- N#C[C@@H]1[C@@H](c2ccc(C3=CCCCC3)cc2)[C@H](CO)N1C(=O)c1ccccn1
    5, 8
- Cc1ccccc1S(=O)(=O)NCC[C@H]1CC[C@@H](NC(=O)C2CC2)[C@@H](CO)O1
    7, 6
- O=C(C[C@@H]1C[C@H]2c3cc(NC(=O)Nc4ccccc4)ccc3O[C@H]2[C@H](CO)O1)NCc1ccncc1
    0, -8
- COc1ccc(S(=O)(=O)Nc2ccc3c(c2)C(=O)N([C@H](C)CO)C[C@@H](C)[C@H](CN(C)S(=O)(=O)c2ccc(F)cc2)O3)cc1
    12, 7
- C[C@@H]1CN([C@@H](C)CO)C(=O)c2cc(NC(=O)Nc3ccccc3)ccc2O[C@@H]1CN(C)Cc1ccc(C(=O)O)cc1
    30, 16
- C[C@H](CO)N1C[C@H](C)[C@@H](CN(C)C(=O)Nc2ccc(F)cc2)OCCCC[C@H](C)Oc2ccc(NC(=O)NC3CCCCC3)cc2C1=O
    -14, -13
- Cc1ccc(S(=O)(=O)N(C)C[C@H]2OCCCC[C@@H](C)Oc3ccc(N(C)C)cc3C(=O)N([C@H](C)CO)C[C@H]2C)cc1
    ?, nt
- CC=Cc1ccc2n(c1=O)C[C@H]1[C@H](CO)[C@@H](C(=O)Nc3ccccc3)N(CC)[C@@H]21 (mixture of isomers)
    4, 6
- COC(=O)C[C@H]1CC[C@@H]2[C@@H](COc3ccc(NC(=O)c4ccc(OC)cc4)cc3C(=O)N2C)O1
    -1, -4
- C[C@H](CO)N1C[C@H](C)[C@H](CN(C)Cc2ccc(C(=O)O)cc2)Oc2ccc(NC(=O)CCC(F)(F)F)cc2C1=O
    12, 3
- COc1cccc(-c2cnc3c(c2)C(=O)N([C@H](C)CO)C[C@H](C)[C@H](CN(C)C)O3)c1
    5, 6
- Cc1noc(C)c1S(=O)(=O)Nc1ccc2c(c1)C(=O)N([C@H](C)CO)C[C@H](C)[C@@H](CN(C)S(=O)(=O)c1cccs1)O2
    21, 19

# Gathered by group, the compounds so far with two or more sulfur atoms
# Values in the order – Vaccinia stage, Vaccinia stage Venus
- COc1ccc(S(=O)(=O)N(C)C[C@@H]2OCCCC[C@H](C)Oc3ccc(NS(=O)(=O)c4ccc(C)cc4)cc3C(=O)N([C@@H](C)CO)C[C@H]2C)cc1
    -6, -2
- COc1ccc(S(=O)(=O)Nc2ccc3c(c2)C(=O)N([C@H](C)CO)C[C@@H](C)[C@H](CN(C)S(=O)(=O)c2ccc(F)cc2)O3)cc1
    12, 7
- Cc1noc(C)c1S(=O)(=O)Nc1ccc2c(c1)C(=O)N([C@H](C)CO)C[C@H](C)[C@@H](CN(C)S(=O)(=O)c1cccs1)O2
    21, 19

# Next entries
# Values in the order – Vaccinia stage, Vaccinia stage Venus
- O=C(C[C@H]1C=C[C@H](NC(=O)C2CCOCC2)[C@H](CO)O1)Nc1nccs1
    11, 8
- CC(C)NC(=O)N[C@@H]1C=C[C@H](CC(=O)O)O[C@H]1CO
    7, 3
- C[C@H](CO)N1C[C@H](C)[C@@H](CN(C)C(=O)Cc2ccncc2)Oc2ncc(C#C[C@@H](C)O)cc2C1=O
    21, 15
- CCC(=O)N1C[C@H](C)[C@H](OC)CN(C)C(=O)c2ccc(NS(C)(=O)=O)cc2OC[C@@H]1C
    -4, -4
- CCS(=O)(=O)N1[C@H](C#N)[C@@H](c2ccc(C#CC(C)C)cc2)[C@@H]1CO
    3, -8
- COCCNC(=O)C[C@@H]1C[C@H]2c3cc(NS(C)(=O)=O)ccc3O[C@H]2[C@@H](CO)O1
    5, -8
- C[C@H](CO)N1C[C@H](C)[C@H](CN(C)Cc2ccc(Oc3ccccc3)cc2)Oc2ccc(NC(=O)NC3CCCCC3)cc2CC1=O
    -26, -19
- COc1ccc(CN(C)C[C@H]2OCCCC[C@H](C)Oc3ccc(NS(=O)(=O)c4ccccc4)cc3C(=O)N([C@H](C)CO)C[C@H]2C)cc1
    ?, nt
- COc1cccc(C(=O)Nc2ccc3c(c2)C(=O)N(C)[C@@H]2CC[C@@H](CC(=O)N[C@H](C)c4ccccc4)O[C@H]2CO3)c1
    29, 12
- CNC[C@H]1Oc2ccc(NS(C)(=O)=O)cc2C(=O)N([C@@H](C)CO)C[C@H]1C
    0, -3
- NC(=O)[C@@H]1[C@H]2C(=O)O[C@H](c3ccccc3)[C@H](c3ccccc3)N2[C@H](c2ccc(OCCO)cc2)[C@@]12C(=O)Nc1ccccc12
    10, 2
- CO[C@H]1CN(C)C(=O)c2ccc(NC(=O)c3ccccc3)cc2OC[C@H](C)N(C(C)=O)C[C@@H]1C
    3, -6
- C[C@@H]1CN([C@@H](C)CO)C(=O)c2cc(C#CCN(C)C)cnc2O[C@@H]1CN(C)C(=O)Cc1cccnc1
    22, 15
- CS(=O)(=O)N1[C@H](C(=O)NC2CCC2)[C@@H](CO)[C@@H]2Cn3c(ccc(-c4ccccc4)c3=O)[C@@H]21
    4, 1
- C#CCNC(=O)C1=C[C@H](c2csc3ccccc23)C[C@H](OCCCCO)O1
    -15, -2
- CCC(=O)N(C)C[C@H]1[C@@H](c2ccc(-c3ccccc3F)cc2)[C@@H](CO)N1C(C)=O
    -7, 0
- C[C@H](CO)N1C[C@H](C)[C@@H](CN(C)C(=O)Nc2ccc(F)cc2)Oc2ccc(NC(=O)c3ccncc3)cc2C1=O
    1, 8
- C[C@H]1CN([C@@H](C)CO)C(=O)c2cc(NC(=O)Nc3ccc(C(F)(F)F)cc3)ccc2O[C@@H]1CN(C)Cc1ccc(Cl)c(Cl)c1
    ?, nt
- C[C@H](CO)N1C[C@H](C)[C@H](CN(C)C(=O)Nc2ccc(F)cc2)Oc2ccc(NC(=O)CCC(F)(F)F)cc2CC1=O
    7, 5
- CC(C)NC(=O)N(C)C[C@H]1Oc2cc(C#Cc3ccccn3)ccc2S(=O)(=O)N([C@H](C)CO)C[C@@H]1C
    8, 12
- C[C@H]1CN([C@@H](C)CO)C(=O)c2cc(-c3cccc(C(=O)N(C)C)c3)cnc2O[C@@H]1CN(C)C(=O)Cc1ccccn1
    13, 15
- O=C(N[C@@H]1CC[C@@H](CCn2cc(C3CC3)nn2)O[C@@H]1CO)c1cccnc1
    2, 4
- C/C=C/c1ccc2c(c1)O[C@@H](CN(C)C(=O)NC(C)C)[C@H](C)CN([C@H](C)CO)S2(=O)=O
    1, 2
- O=C(C[C@@H]1CC[C@H](NC(=O)c2ccccc2)[C@@H](CO)O1)NCCc1ccncc1
    1, 0
- CO[C@@H](CN(C)S(=O)(=O)c1ccc(Cl)cc1)[C@@H](C)CN(Cc1ccccc1Cl)[C@H](C)CO
    -10, -5
- C[C@H](NC(=O)C[C@H]1C[C@@H]2c3cc(NC(=O)c4cccnc4)ccc3O[C@@H]2[C@@H](CO)O1)c1ccccc1
    1, 16
- C[C@@H]1CN([C@H](C)CO)C(=O)Cc2cc(N(C)C)ccc2O[C@H]1CN(C)C(=O)Nc1ccc(C(F)(F)F)cc1
    -5, -4
- CO[C@@H]1CN(C)C(=O)c2ccc(NC(C)=O)cc2OC[C@@H](C)N(Cc2ccc(F)cc2)C[C@H]1C
    -11, -1
- Cc1ccc(S(=O)(=O)Nc2ccc3c(c2)C(=O)N([C@H](C)CO)C[C@@H](C)[C@@H](CN(C)S(=O)(=O)c2ccc(F)cc2)OCCCC[C@H](C)O3)cc1
    -8, -1
- CC(C)NC(=O)Nc1ccc2c(c1)CC(=O)N([C@@H](C)CO)C[C@@H](C)[C@@H](CN(C)C(=O)Nc1ccc(C(F)(F)F)cc1)O2
    17, 6

# Structures listed so far that contain a cyano group, in the order listed:
# Values in the order – Vaccinia stage, Vaccinia stage Venus
- N#C[C@@H]1[C@@H](c2ccc(C3=CCCCC3)cc2)[C@H](CO)N1C(=O)c1ccccn1
    5, 8
- CCS(=O)(=O)N1[C@H](C#N)[C@@H](c2ccc(C#CC(C)C)cc2)[C@@H]1CO
    3, -8

# The results go on.
# Values in the order – Vaccinia stage, Vaccinia stage Venus
- C[C@H](CO)N1C[C@H](C)[C@H](CN(C)Cc2ccc(F)cc2)Oc2ncc(/C=C/c3ccccc3)cc2C1=O
    ?, nt
- C[C@@H]1CN([C@@H](C)CO)C(=O)c2cccc(NS(=O)(=O)c3ccccc3)c2O[C@H]1CN(C)C(=O)Nc1ccccc1
    21, 14
- CNC[C@@H]1Oc2cc(C#CCN(C)C)ccc2S(=O)(=O)N([C@@H](C)CO)C[C@H]1C
    15, 15
- C/C=C/c1ccc([C@H]2[C@H](CO)N(c3nc(CC)cs3)[C@H]2CNC(C)C)cc1
    ?, nt
- CO[C@H]1CN(C)C(=O)c2cc(NC(C)=O)ccc2OC[C@@H](C)N(C(=O)C2CCCCC2)C[C@@H]1C
    10, 11
- CCCNC(=O)N1CC2(CCN(S(=O)(=O)CC)CC2)c2c([nH]c3cc(OC)ccc23)[C@@H]1CO
    8, 0
- CCCC(=O)Nc1ccc2c(c1)OC[C@H](C)N(C(=O)c1cccnc1)C[C@@H](C)[C@@H](OC)CN(C)C2=O
    15, 14
- COc1cccc(-c2ccc(C3[C@H]4CNC[C@@H]3N4S(=O)(=O)c3cccc(Cl)c3)cc2)c1 (stereo partly drawn)
    7&1, 12&12
- C[C@H]1CN([C@@H](C)CO)C(=O)c2cc(NC(=O)C3CCCCC3)ccc2O[C@H]1CN(C)Cc1ccc2c(c1)OCO2
    -2, 2
- C[C@H](CO)N1C[C@H](C)[C@@H](CN(C)Cc2ccc(F)cc2)OCc2ccccc2-c2ccccc2C1=O
    -21, -23
- O=C(C[C@@H]1CC[C@@H]2[C@H](COC[C@@H](O)CN2Cc2cccc(C(F)(F)F)c2)O1)NCc1ccccc1
    -8, -2
- C[C@H](CO)N1C[C@H](C)[C@H](CN(C)C)Oc2ncc(C#CC3CC3)cc2C1=O
    2, 2
- CO[C@@H]1CN(C)C(=O)c2cc(NC(=O)Nc3cc(F)ccc3F)ccc2OC[C@H](C)NC[C@H]1C
    -27, -14
- COCC(=O)N1[C@H](C#N)[C@H](c2ccc(C3=CCCC3)cc2)[C@@H]1CO
    17, 8
- CC(C)NC(=O)Nc1ccc2c(c1)C(=O)N([C@@H](C)CO)C[C@H](C)[C@@H](CN(C)C(=O)Nc1ccccc1)OCCCC[C@@H](C)O2
    19, 6
- C[C@@H]1CN([C@@H](C)CO)C(=O)c2cc(NC(=O)CCC(F)(F)F)ccc2O[C@@H](C)CCCCO[C@@H]1CN(C)C(=O)Nc1ccc(F)cc1
    13, 6
- C[C@@H](NC(=O)[C@H]1[C@H](CO)[C@H]2Cn3c(cccc3=O)[C@@H]1N2Cc1cccnc1)c1ccccc1
    1, -4
- COc1ccc(S(=O)(=O)N(C)C[C@H]2OCCCC[C@@H](C)Oc3ccc(NS(=O)(=O)c4ccccc4)cc3C(=O)N([C@H](C)CO)C[C@@H]2C)cc1
    20, 10
- O=C(NC1CCCC1)[C@@H]1[C@@H](CO)[C@@H]2Cn3c(ccc(-c4ccccc4)c3=O)[C@H]1N2
    4, -6
- COc1ccc2c3c([nH]c2c1)[C@H](CO)N(C(C)=O)CC31CCN(C(=O)CN2CCOCC2)CC1
    12, -1

# These rows are one share of the data; rates above refer to the full screens.
